GALR2 ag: agonists of human galanin receptor 2 (GALR2); O43603; GALR2-expressing cells, agonist activation read-out; activation, %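 (tested at 5 µM)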; hit rate 0.48% among 140,000;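 active = above mean plus 3 SD of all compounds, about 5% in these data, not always enough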;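 note: 0% = vehicle buffer wells and 100% = reference agonist at full effect; tested in CHO reporter cells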
Target sequence (O43603 whole entry, looked up): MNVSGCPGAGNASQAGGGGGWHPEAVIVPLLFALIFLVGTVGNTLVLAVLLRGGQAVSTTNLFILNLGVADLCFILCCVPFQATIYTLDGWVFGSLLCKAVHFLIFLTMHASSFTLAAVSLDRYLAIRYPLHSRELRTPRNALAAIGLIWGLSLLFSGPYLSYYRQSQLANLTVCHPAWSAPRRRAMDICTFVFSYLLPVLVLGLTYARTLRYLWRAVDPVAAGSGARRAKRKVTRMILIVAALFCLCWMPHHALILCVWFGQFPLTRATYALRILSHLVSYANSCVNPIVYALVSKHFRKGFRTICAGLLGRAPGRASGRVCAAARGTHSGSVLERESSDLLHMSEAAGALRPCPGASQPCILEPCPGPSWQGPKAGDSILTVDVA
INS promoter inh: TRM-6 insulin promoter activity inhibition. inhibition, % at 2 µM. AID 1273. hit rate 0.9% among 130,000. TRM-6 cells (human fetal islet line), insulin promoter-eGFP reporter, imaging; reporter expression induced with tamoxifen;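 active = inhibition above the mean plus 3 SD, with well images judged a real hit on visual review, cut at about 60% in these data, passing the limit was not always enough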
PKD1 inh: inhibitors of human PKD1 kinase | Q15139 | PKD1 kinase fluorescence polarization assay | inhibition, %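 (about 10 µM by stock and volumes)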 | hit rate 0.056% among 200,000 | AID 797;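 active = inhibition of 50% or more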;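 note: controls were vehicle for no effect and a reference inhibitor for full effect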
RGS16-Gao HTS: RGS16-Galphao interaction regulator (human); binding response (% of control), % at 10 µM; bead-based flow cytometry RGS16-Galphao binding, fluorescence; actives lie on both sides; O15492+P09471; AID 1441; hit rate 0.38% among 220,000;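 active = below 25% or above 175%, edge rows of some plates excepted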;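 note: Galphao activated by GDP with aluminum fluoride before binding; 100% = wells without compound and 0% = beads without RGS; some results beyond the cut were filed as inactive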
Target sequence (O15492 whole entry, looked up): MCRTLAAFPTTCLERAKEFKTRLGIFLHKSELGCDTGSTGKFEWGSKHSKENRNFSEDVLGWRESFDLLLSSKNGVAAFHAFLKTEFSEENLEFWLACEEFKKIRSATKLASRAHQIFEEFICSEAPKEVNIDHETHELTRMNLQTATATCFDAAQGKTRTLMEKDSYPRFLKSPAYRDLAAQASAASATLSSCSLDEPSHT
Target sequence (P09471 whole entry, looked up): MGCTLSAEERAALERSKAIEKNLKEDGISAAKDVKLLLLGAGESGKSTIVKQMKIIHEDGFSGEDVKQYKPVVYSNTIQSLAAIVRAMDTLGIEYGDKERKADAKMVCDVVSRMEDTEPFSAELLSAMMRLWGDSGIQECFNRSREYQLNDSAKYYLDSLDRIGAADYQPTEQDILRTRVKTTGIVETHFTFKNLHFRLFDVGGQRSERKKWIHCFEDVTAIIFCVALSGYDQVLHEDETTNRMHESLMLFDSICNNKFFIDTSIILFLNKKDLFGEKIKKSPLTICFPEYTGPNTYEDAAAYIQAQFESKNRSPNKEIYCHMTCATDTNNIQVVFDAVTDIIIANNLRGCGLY
HSV replic up: increases HSV replication in cells | HSV replication augmentation in cells, fold increase | maximum fold increase | hit rate 0.005% among 220,000 | AID 1956;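 active = peak rise of 1.5-fold or more in the series; tested in PC3 cells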;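 note: first round at 10 µM; read as green reporter fluorescence; hits show the peak of a series up to 25 µM; 1 = signal of infected wells without compound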
INS promoter inh cell count: also measured in INS promoter inh; calls as there; normalized cell count, %; measured here: cell count, toxicity; reference of the scale not given here;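 cells exposed to compound for 48 h; stained nuclei by imaging scaled within each plate; lower means fewer cells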
HSV replic up primary fold: second read-out of HSV replic up, no call of its own (marks repeat the call); fold increase; compound at 10 µM; measured here: primary screen fold increase 10 uM; tested in PC3 cells;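 GFP signal in the first replicate; 1 = infected wells without compound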
Numbers without * were called inactive; i = inactive; . = no result given.

SMILES | GALR2 ag | INS promoter inh | INS promoter inh cell count | PKD1 inh | RGS16-Gao HTS | HSV replic up | HSV replic up primary fold
CCOC(=O)CNC(=O)N1CCCC(C(=O)c2ccc3c(c2)OCO3)C1 (stereo unspecified) | . | -61 | 86 | -9 | 109 | i | 0.93
C=COCCNC(=S)N1CCOCCOCCN(C(=S)NCCOC=C)CCOCC1 | . | -200 | 57 | -2 | 80 | i | 1.1
CCNc1ccc(S(=O)(=O)N(C)C)cc1NCC(=O)Nc1ccc(Br)cc1F | -0.3 | -38 | 99 | -4 | 109 | i | 0.91
CCC(CC)NC(=O)COC(=O)c1ccc(NS(=O)(=O)c2ccc3c(c2)OCCO3)cc1 | -1.2 | 5 | 85 | -8 | 103 | . | .
O=c1c2ccccc2oc2nc(-c3ccco3)n(-c3ccccc3)c(=O)c12 | -0.3 | . | . | -7 | 113 | i | 0.9
C/C(Cc1ccccc1)=N\NC(=O)CNC(=O)c1cccc(Cl)c1 | . | . | . | . | 93 | i | 1
CCCC(C)C(=O)Nc1ccc2c(c1)OCCO2 (stereo unspecified) | -0.5 | -254 | 111 | -8 | 102 | i | 0.94
Cn1cnc([N+](=O)[O-])c1Oc1ccc2ccccc2c1 | -1.6 | 11 | 88 | -2 | 104 | i | 0.67
Cc1ccc(NC2=C(Cl)C(=O)OC2NC(=O)c2ccccc2)cc1 (stereo unspecified) | -3.4 | -13 | 143 | -12 | 107 | i | 1.1
CCCn1c(SCC(N)=O)nc2c(c1=O)C1(CCCC1)Cc1ccccc1-2 | -3.4 | -71 | 43 | -3 | 103 | . | .
COC(=O)N/N=C(\C)c1cccs1 | . | . | . | . | 110 | i | 0.9
Cc1csc(NC(=O)c2cc([N+](=O)[O-])cc([N+](=O)[O-])c2)n1 | 0.3 | -17 | 60 | 1 | 101 | i | 0.82

Reprinted from the part before: two compounds, followed by the next part.
SMILES | GALR2 ag | INS promoter inh | INS promoter inh cell count | PKD1 inh | RGS16-Gao HTS | HSV replic up | HSV replic up primary fold
COC(=O)N/N=C(\C)c1cccs1 | . | . | . | . | 110 | i | 0.9
Cc1csc(NC(=O)c2cc([N+](=O)[O-])cc([N+](=O)[O-])c2)n1 | 0.3 | -17 | 60 | 1 | 101 | i | 0.82
C[C@@H]1C[C@@H]2O[C@H]2/C=C\C=C\C(=O)Cc2c(Cl)c(O)cc(O)c2C(=O)O1 | . | . | . | 9 | 108 | i | 0.47
COc1ccc(-n2c(=S)[nH]c(=O)c3cccnc32)cc1 | . | . | . | . | 101 | i | 1
COc1ccc2c(c1)CC1c3c(cc4c(c3-2)OCO4)CC[N+]1(C)[O-] (stereo unspecified) | . | . | . | . | 83 | i | 0.75
O=C(/C=C/c1cccs1)Nc1nc(-c2ccccc2)cs1 | -2.6 | -18 | 108 | 1 | 106 | i | 1.1
O=C(NCCn1cc(SCc2ccc(F)cc2)c2ccccc21)c1c(F)cccc1F | -0.4 | -110 | 87 | -7 | 95 | i | 0.97
COc1ccc(CN2CCCCC2C(=O)Nc2ccc(OC)c(OCC(C)C)c2)cc1OC (stereo unspecified) | -1.3 | 28 | 84 | 7 | 72 | i | 1
NS(=O)(=O)c1ccc(NC(=O)N2c3ccccc3Sc3ccccc32)cc1 | -1.2 | . | . | 5 | 95 | i | 0.73
CCC(=O)Nc1nc(C)c(Oc2ccccc2)c(=O)[nH]1 | -2.6 | 18 | 133 | -11 | 99 | i | 0.88
Cc1ccc(/C=N/NC(=O)c2ccco2)s1 | -2.6 | . | . | -7 | 100 | i | 0.9
c1coc(C2Nc3cccc4cccc(c34)N2)c1 | -0.1 | 21 | 87 | -4 | 77 | i | 1
Oc1ccccc1-c1cc(-c2ccccc2Cl)[nH]n1 | -2.4 | -155 | 116 | -11 | 99 | i | 1
CCn1c(COc2cccc3cccnc23)nnc1SC(F)F | . | . | . | 3 | 97 | i | 0.81
O=C(CCSc1ccc(Cl)cc1)NCc1ccncc1 | . | -109 | 143 | -3 | 108 | i | 0.88
COc1ccc2c(c1)C(C)CC(C)(C)N2C(=O)CSc1ncn[nH]1 (stereo unspecified) | -1.2 | 6 | 99 | 4 | 100 | i | 0.91
CCC(C)NC(=O)C1CCN(S(=O)(=O)CC)CC1 (stereo unspecified) | -0.3 | 14 | 155 | 4 | 102 | i | 0.97
O=c1[nH]c(CSc2ccccn2)nc2c1cnn2-c1ccccc1 | 0.5 | 34 | 104 | -1 | 176 | i | 0.96
O=C(CSc1ncnc2c1oc1ccccc12)Nc1nc2ccccc2s1 | -3.2 | . | . | 3 | 44 | i | 1
CCCc1nnc(NC(=O)CCC(=O)N2CCN(C3c4ccccc4-c4ccccc43)CC2)s1 | -0.8 | 48 | 110 | -7 | 95 | i | 0.85
CCC(=O)N1CCc2cc(Br)cc(S(=O)(=O)N3CCCCCC3)c21 | -0.2 | -15 | 102 | 1 | 103 | i | 0.87
FC(F)(F)c1cccc(-c2ccc(-c3csnn3)o2)c1 | -1.8 | . | . | 2 | 100 | i | 0.92
COc1cccc(C2C3=C(CCCC3=O)NC3=C2C(=O)c2ccccc23)c1 (stereo unspecified) | . | 19 | 88 | -10 | 107 | i | 1
N#CC(C(=O)OC1CCCCC1)c1nc2ccccc2nc1N1CCCCC1 (stereo unspecified) | -2.0 | . | . | 8 | 105 | i | 0.84
O=C(CSc1ncnc2c1oc1ccccc12)Nc1cccc(F)c1 | -0.7 | -35 | 125 | -9 | 102 | i | 0.87
COc1ccc(C(=O)N/C(=C\c2ccccc2)C(=O)NC(CC(C)C)C(=O)O)cc1 (stereo unspecified) | . | 0 | 128 | 2 | 100 | i | 0.9
CCSc1nnc(CNc2ccc(F)cc2)n1CC1CCCO1 (stereo unspecified) | 0.1 | . | . | 6 | 105 | i | 0.97
CCCOC(=O)CN1C(=O)c2ccccc2C1=O | -2.4 | 50 | 124 | 1 | 101 | i | 0.94
COc1ccc(C(=O)NNC(=S)NC2CCCCC2)cc1OC | -1.0 | . | . | 2 | 95 | i | 1.2
CCOc1ccc(/C=N/NC(=O)c2nnn(-c3nonc3N)c2COc2ccc(F)cc2)cc1 | . | . | . | . | 97 | i | 0.63
CCOC(=O)C1=C(CSc2nc3c(cc2C#N)CN(C)CC3)OC(N)=C(C#N)C1c1ccc(F)cc1 (stereo unspecified) | -0.8 | -9 | 128 | 0 | 106 | i | 1.1
Cc1c(NC(=O)CSc2nnnn2-c2ccc(C(=O)O)cc2)c(=O)n(-c2ccccc2)n1C | . | . | . | 2 | 106 | i | 1
O=C(O)c1cc(-c2ccccc2)c(N2CCOCC2)s1 | -0.7 | . | . | -8 | 100 | i | 1
Cc1ccc(SCCCn2cnc3ccccc3c2=O)cc1 | -0.5 | 2 | 122 | -3 | 104 | i | 0.99
COc1cccc(C(=O)C2CCCN(Cc3cccn3-c3cccnc3)C2)c1 (stereo unspecified) | . | . | . | 4 | 109 | i | 0.9
Cc1nc(C(F)(F)F)ccc1C(=O)Nc1ccc(C(F)(F)F)cn1 | . | . | . | . | 101 | i | 0.99
Cc1cccc(C)c1N1C(=O)[C@@H]2C(c3ccccc3Cl)=NO[C@@H]2C1=O | . | . | . | . | 96 | i | 1.1
Cc1cccc(/N=C/c2c(O)n(Cc3ccc4c(c3)OCO4)c(=O)c3ccccc23)n1 | . | -19 | 92 | -9 | 88 | i | 0.97

Seven of the compounds above, with values under each structure.
Fields: GALR2 ag, INS promoter inh, INS promoter inh cell count, PKD1 inh, RGS16-Gao HTS, HSV replic up, HSV replic up primary fold
COc1ccc(-n2c(=S)[nH]c(=O)c3cccnc32)cc1
 : ., ., ., ., 101, i, 1
COc1ccc2c(c1)CC1c3c(cc4c(c3-2)OCO4)CC[N+]1(C)[O-] (stereo unspecified)
 : ., ., ., ., 83, i, 0.75
O=C(/C=C/c1cccs1)Nc1nc(-c2ccccc2)cs1
 : -2.6, -18, 108, 1, 106, i, 1.1
O=C(NCCn1cc(SCc2ccc(F)cc2)c2ccccc21)c1c(F)cccc1F
 : -0.4, -110, 87, -7, 95, i, 0.97
COc1ccc(CN2CCCCC2C(=O)Nc2ccc(OC)c(OCC(C)C)c2)cc1OC (stereo unspecified)
 : -1.3, 28, 84, 7, 72, i, 1
NS(=O)(=O)c1ccc(NC(=O)N2c3ccccc3Sc3ccccc32)cc1
 : -1.2, ., ., 5, 95, i, 0.73
CCC(=O)Nc1nc(C)c(Oc2ccccc2)c(=O)[nH]1
 : -2.6, 18, 133, -11, 99, i, 0.88

Next results follow.
SMILES | GALR2 ag | INS promoter inh | INS promoter inh cell count | PKD1 inh | RGS16-Gao HTS | HSV replic up | HSV replic up primary fold
O=C(CNc1ccc(Br)cc1)NNC1=NCCC1 | -2.9 | 50 | 99 | -16 | 103 | i | 1.1
Cc1cc(Cl)ccc1NC(=O)NC1CCN(S(=O)(=O)c2ccc(F)cc2)CC1 | 0.7 | -20 | 73 | 3 | 107 | i | 0.99
COc1ccc(-c2coc3cc4oc(=O)cc(C)c4cc23)cc1F | -0.9 | 11 | 105 | 0 | 94 | i | 0.59
O=C(COC(=O)CC(c1ccccc1)c1ccccc1)NCc1ccccc1 | 0.1 | 45 | 100 | 3 | 80 | i | 1
CCN(C(=O)CSc1nc2ccccc2c(=O)n1C(C)COC)C1CCS(=O)(=O)C1 (stereo unspecified) | . | . | . | -6 | 102 | i | 0.92
O=C(NC1(C(F)(F)F)NC(=O)N(c2ccc(F)cc2)C1=O)c1cccs1 (stereo unspecified) | -0.3 | 47 | 124 | -4 | 110 | i | 1.2
CCCn1c2c(c(O)c(C(=O)Nc3ccccc3)c1=O)CCCC2 | -1.6 | . | . | -6 | 102 | . | .
O=C(N/N=C/c1ccncc1)/C(=C/c1ccccc1)NC(=O)c1ccccc1 | -3.3 | 17 | 117 | 6 | 106 | i | 0.93
O=S(=O)(c1ccccc1S(=O)(=O)N1CCCCC1)N1CCCCC1 | 0.5 | -10 | 117 | -11 | 103 | i | 0.99
COCCNC(=O)c1onc(CSc2cccc(OC)c2)c1C(=O)O | -1.8 | . | . | -6 | 96 | i | 1.1
O=C(Nc1ccnc(-c2ccncc2)n1)C1CC1 | . | . | . | -7 | 100 | i | 1.1
C=CCc1cc(Cl)ccc1OCCCNCCO | . | . | . | -4 | 100 | i | 0.75

Entries of single compounds, looked up by structure. Screens in order: GALR2 ag | INS promoter inh | INS promoter inh cell count | PKD1 inh | RGS16-Gao HTS | HSV replic up | HSV replic up primary fold
Entry for `O=C(Nc1ccnc(-c2ccncc2)n1)C1CC1` → . | . | . | -7 | 100 | i | 1.1
Entry for `O=C(COC(=O)CC(c1ccccc1)c1ccccc1)NCc1ccccc1` → 0.1 | 45 | 100 | 3 | 80 | i | 1
Entry for `O=C(N/N=C/c1ccncc1)/C(=C/c1ccccc1)NC(=O)c1ccccc1` → -3.3 | 17 | 117 | 6 | 106 | i | 0.93

Later entries:
SMILES | GALR2 ag | INS promoter inh | INS promoter inh cell count | PKD1 inh | RGS16-Gao HTS | HSV replic up | HSV replic up primary fold
CC(C)CN1CCN(Cc2ccc3ncccc3c2)CC1CCO (stereo unspecified) | . | . | . | -6 | 100 | i | 0.95
CCOC(=O)Nc1ccc2c(c1)nc(CN1CCN(C(C)=O)CC1)n2C | -2.3 | 57 | 151 | 4 | 101 | i | 0.93
O=C(c1nc2ccccn2c1CNCCOc1cccnc1)N1CCOCC1 | . | . | . | -6 | 100 | i | 1.1
CCOc1ccccc1-n1c(SCC(=O)N2CCCc3ccccc32)nnc1-c1cccnc1 | 0.4 | 3 | 105 | -16 | 100 | i | 0.94
CC(=O)c1ccc(NC(=O)C(NC(=O)c2ccccc2)=C(C)C)cc1 | . | . | . | -3 | 104 | i | 1
CCSc1ncnc2sc(C)c(C)c12 | -0.1 | 41 | 88 | 3 | 77 | i | 1.1
CC(C)C12CN3CCN(CC(C3)/C1=N\NC(=O)Nc1ccccc1)C2 | -1.3 | 7 | 82 | 1 | 113 | i | 0.88
CCNS(=O)(=O)c1ccc(CCC(=O)Nc2ccccc2C(=O)OC)cc1 | -0.9 | 13 | 151 | 3 | 106 | i | 0.94
CCN(CC)c1nc(-c2nn[nH]n2)nc(N(CC)CC)n1 | 0.0 | . | . | -9 | 88 | i | 0.87
Cc1ccc(-c2nn(CCC(=O)Nc3cccnc3)c(=O)c3ccccc23)cc1 | . | . | . | . | 96 | i | 0.85
CCOC(=O)C/C(C)=N/NC(=O)Nc1ccccc1 | -1.7 | 38 | 135 | 3 | 108 | i | 0.86
CCCOc1ccc(C(=O)N2CCCc3ccccc32)cc1 | -0.2 | -145 | 65 | 2 | 99 | i | 0.75
COc1ccc(OC)c(/C=N/NC(=O)C(=O)N2CCCC2)c1 | . | . | . | -3 | 109 | i | 1
